Compound activity as filed in PubChem.
BasE inh = BasE siderophore enzyme inhibitors, primary screen, biochemical, Acinetobacter baumannii ATCC 17978, fluorescence polarization; purified BasE, fluorescence polarization binding displacement; inhibition, % (no concentration beside the values); 84,000 compounds, 0.1% hits; AID 485350, 2010;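 active means both replicates above 25% with normal brightness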;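 further: 0% = negative plate control signal and 100% = positive plate control signal; stock transfer was 100 nL into about 30 µL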
LANA-nucl inh = inhibitors of KSHV LANA-nucleosome binding, primary screen, biochemical, fluorescence polarization, FITC-LANA1-23, chicken nucleosomes | FITC-LANA1-23 / chicken nucleosome fluorescence polarization; stronger effect = lower value | z-score (test concentration not listed) | 51,000 compounds, 0.3% hits;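 active means both repeat wells score below -2 in polarization z-score versus plate sample wells, excluding overly bright wells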;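 further: 100 nL library stock added to about 30 µL; numbers are from one replicate; some results filed as inactive read as strong as hits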
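test system = FITC-LANA peptide and chicken nucleosomes | amount = 240 nM purified chicken nucleosomes (480 nM peptide binding sites), final | reagent = 50 nM FITC-LANA1-23 probe | medium = TEN-BT buffer, pH 7.5 | doses = single compound addition by pin transfer, 100 nL per well | timing = 10–45 min, room temperature | detection = fluorescence polarization | repeats = duplicate plates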
* hit, by the source's call; . = no result given; & = joins results of further samples. An excerpt (hit frequency here may not be typical).

Every second line gives: BasE inh | LANA-nucl inh
COc1cccc2oc(-c3ccccc3)c(Br)c12
 : -2.1 | .
Cc1nc(=O)c(-c2ccccc2)c(C)n1CCCCCC(=O)O
 : 1.8 | .
O=C(NC1CCCC1)C1CCN(c2ccccc2)C1=O (configuration not stated)
 : -3.5 | 2.63
CC(c1cc2ccccc2s1)N(O)C(N)=O (configuration not stated)
 : . | -0.638&0.0945&-0.28
O=S(=O)(NCC(c1ccccc1)N1CCNCC1)c1ccccc1 (configuration not stated)
 : -1.8 | -1.14
N#Cc1ccc(COC(=O)CN2C(=O)COc3ccccc32)cc1
 : 3.0 | .
O=C1CCc2ccc(OCCCCN3CCN(c4cccc(Cl)c4Cl)CC3)cc2N1
 : . | 0.049&-0.163&-0.493
CCCOc1ccc(C2C3CN(CC)CC=C3C(C#N)=C(N)C2(C#N)C#N)cc1OC (configuration not stated)
 : 1.9 | -1.63
Cc1ccc2occ(CC(=O)N(C)Cc3ccccc3)c2c1
 : 1.3 | 0.459
COc1ccccc1NC(=O)c1ccc(OCC(=O)O)cc1
 : 2.8 | 0.109
OC(CN1CCNCC1)Cn1c2ccc(Br)cc2c2cc(Br)ccc21 (configuration not stated)
 : -1.2 | .
CC(=O)O/N=C(\C)c1c(OC(C)=O)ccc2c(C)cc(=O)oc12
 : 2.4 | -0.786
O=C(c1cc2c(s1)-c1ccccc1S(=O)(=O)C2)N1CCCCC1
 : -1.0 | 0.398
Cc1ccc(F)c(NC(=O)C(F)(F)C(F)F)c1
 : -0.9 | -0.5
Cc1ccc(-c2nc3nc(C)cc(=O)n3[nH]2)cc1
 : -0.4 | -0.006
COc1cc2c(cc1OC)C(C)N(C(C)=O)CC2 (configuration not stated)
 : -1.1 | 0.133
C=CCNc1nc(C(=O)OCC(=O)NCc2cccc(OC)c2)cs1
 : 0.8 | .
Cn1c(-c2ccccc2)nc2cc(N)ccc21
 : 4.3 | -0.25
Cc1ccc(O)c(C(=O)c2cnn3c(=S)[nH]nc3c2)c1
 : 1.9 | .
Cc1noc(NS(=O)(=O)c2ccc(NC3OC(=O)c4ccccc43)cc2)c1C (configuration not stated)
 : -0.7 | .

(cont.)
Every second line gives: BasE inh | LANA-nucl inh
CCn1c(CNC(=O)C(OC)c2ccccc2)nnc1SC (configuration not stated)
 : -0.6 | -0.595
CCOc1ccc(-n2c(SCC(=O)NC(=O)CN3CCCC3=O)nc3ccccc32)cc1
 : -0.1 | .
COn1c(C)c(C)c2c3no[n+]([O-])c3ccc21
 : -15.4 | 0.579
CCNC(=O)Cn1c(=O)c2c(ncn2Cc2ccccc2)n(Cc2ccccc2)c1=O
 : 0.2 | .
COc1ccc(-c2ccc(C#N)c(SCc3ccccn3)n2)cc1
 : 0.3 | 0.619
Nc1ccc(Cc2ccc(N)c(N)c2)cc1N
 : 3.8 | -0.159
COc1ccc(Nc2n[nH]c(N)c2C(N)=O)cc1
 : 2.6 | -0.357
NC(=S)Cc1c(Cl)sc2ccc(Cl)cc12
 : 1.2 | .
CCOC(=O)N/N=C/c1ccc(OC)c(CN2CCOCC2)c1
 : -3.3 | 1.13
C=CCN1C(=O)S/C(=C/c2ccc(C(=O)O)cc2)C1=O
 : 1.0 | 0.044
C#CC(CC)(CC)NC(=O)c1c(C)noc1C
 : 0.0 | -1.68
O=C1/C(=C/c2ccco2)N=C(c2ccccc2)N1/N=C/c1ccc(F)cc1
 : -0.5 | .
CC[n+]1c(C)n(-c2ccccc2)c2ccc(N)cc21
 : 0.9 | .
CC(C)N1C(=O)S/C(=C\c2ccc(-c3cccc(C(F)(F)F)c3)o2)C1=O
 : 0.7 | -0.926
Cc1ccc2[nH]c(=O)c(NCN3CCCCC3)c(-c3ccccc3)c2c1
 : -0.8 | .
COC(=O)C12CC3CC(CC(NC(C)=O)(C3)C1)C2
 : 4.1 | -0.674
C[N+]1=C(/C=C/Nc2ccccc2)SCC1
 : -1.1 | -0.292
CC(=O)Nc1nnc(SCC(=O)N2CCCC2)s1
 : -0.2 | 0.503
NS(=O)(=O)c1ccc(NC(=O)C2=COCCO2)cc1
 : 0.9 | -0.849
C/C(=N\N1C(=O)CN(Cc2ccccc2)C1c1ccco1)c1ccc(Cl)cc1 (configuration not stated)
 : 0.9 | 0.093

Carrying on:
Every second line gives: BasE inh | LANA-nucl inh
N/C(Cc1ccc(Cl)cc1Cl)=N\OC(=O)c1ccc(Br)o1
 : 0.4 | -0.081
CCc1ccc(NC(=O)CC(C(=O)O)N2CCCCC2)cc1 (configuration not stated)
 : -0.6 | -0.74
Cc1ccc(C)c(S(=O)(=O)Nc2ccc3oc4c(c3c2)CC(C(C)(C)C)CC4)c1 (configuration not stated)
 : 0.1 | .
CC(C)(C)c1cc2nc(C(F)(F)F)cc(Sc3ccccc3)n2n1
 : 0.0 | .
S=C(Nc1ccccc1)N1CCN(Cc2ccccc2)CC1
 : -1.4 | -0.0705
Cc1ccc(S(=O)(=O)NCCN2C(=N)N(c3nc(N(C)C)nc(N(C)C)n3)CC2=O)cc1
 : -3.3 | -1.21
O=C(c1ccc(N2CCOCC2)nc1)N1CCSCC1
 : 1.2 | .
CCOC(=O)c1oc2ccccc2c1CN1NS(=O)(=O)c2ccccc2C1=O
 : 0.9 | .
O=C(c1ccc2nsnc2c1)N(Cc1ccccn1)Cc1ccccn1
 : 2.1 | .
N=C1SCC(=O)N1/N=C/c1ccccc1
 : 1.6 | -0.176
N/C(=N\c1nc2ccccc2o1)NC(=O)/C=C/c1ccco1
 : 3.4 | -0.0755
Cn1c(=O)c(C(=O)NCc2cccnc2)cc2cccnc21
 : -1.5 | 0.551
COc1cc(N)c(Cl)cc1C(=O)OCC(=O)N(C)C1CCCCC1
 : 0.1 | .
Cc1ccc(Nc2nc(CSc3nnc(C)n3Cc3ccccc3)cs2)cc1
 : 1.7 | .
COC(=O)c1sc(N)c(C(=O)OC)c1CSc1nnc(Cc2ccccc2)n1C
 : -0.9 | .
Nc1ccc2c(c1)OC1(O)c3ccccc3C(=O)C21O (configuration not stated)
 : 2.2 | .
C=CCN1CCN(C(c2ccc(C)cc2)c2nnnn2C2CCCC2)CC1 (configuration not stated)
 : 0.9 | 2.2
COc1ccc(Cl)cc1C(=O)CCC(=O)O
 : -0.2 | 1.38
C/C(=N\NC(=O)c1cc2ccccc2cc1O)c1cccnc1
 : 3.8 | -0.72
CC1CC(C)CN(C(=O)COC(=O)Cc2coc3cc(O)ccc23)C1 (configuration not stated)
 : 4.7 | .

Additional compounds follow.
Every second line gives: BasE inh | LANA-nucl inh
CCN(CC)c1ccc(NC(=O)C2CCCCC2)c(N(CC)CC)n1
 : 3.0 | .
COC(=O)N/N=C\c1cccc(OC(=O)c2cccs2)c1
 : -1.5 | -0.218
N#Cc1cnc(SCC(=O)Nc2cc(Cl)ccc2O)nc1N
 : -1.0 | -1.22
Cc1ccc(NC(=O)CCc2c(C)nn3cnnc3c2C)cc1
 : 0.1 | -0.258
CC(C)NCC(O)c1ccc(NS(C)(=O)=O)cc1 (configuration not stated)
 : -5.1 | 0.694&0.128&-0.531&1.86
COc1ccc(NC(=O)CSc2nc(O)cc(=O)n2-c2ccccc2OC)cc1
 : 0.3 | .
O=C(c1ccccc1)N1CCC(c2nc3c(nnn3Cc3ccccc3)c(=O)[nH]2)CC1
 : 2.7 | 0.619
CC1CCc2cc(F)ccc2N1S(=O)(=O)c1c(N)n(C)c(=O)n(C)c1=O (configuration not stated)
 : 2.4 | -0.562
COC(=O)c1cc(OC)c(OC)cc1N1C(=O)CCC1=O
 : -1.8 | 0.306
O=C(NCC1CCN(Cc2ccc(Cl)cc2)CC1)c1[nH]nc2c1COc1ccccc1-2
 : -4.1 | -0.054
CNC(=S)N(Cc1ccco1)Cc1cc2cc(C)ccc2n2nnnc12
 : 0.6 | -0.565
Oc1oc(C=Nc2ccccc2)c2ccccc12
 : . | -0.235
Cn1c(=O)c2c(nc(N3CCN(C(=O)c4ccco4)CC3)n2CCSc2ncccn2)n(C)c1=O
 : 1.7 | -1.11
O=C1Nc2cc(C(=O)N3CCN(C(=O)c4ccco4)CC3)ccc2Sc2ccccc21
 : -0.8 | 0.346
CCCCCCCCCCCCCCCC(=O)O[C@@H]1[C@@H](O)[C@@H](O)[C@@H](C(NC(=O)[C@@H]2C[C@@H](CCC)CN2C)C(C)Cl)O[C@@H]1SC (some centres not stated)
 : . | 1.41
O=C(CCc1ccco1)Nc1cccc(-c2nc3ccccc3[nH]2)c1
 : -2.2 | .
Cc1ccc(OCC(=O)N2CCC(C)CC2)cc1C
 : 1.1 | 0.377
COc1ccc(N/N=C(\C#N)C(=N)N2CCCCC2)cc1
 : 0.8 | 0.445
O=C(CCc1ccc(S(=O)(=O)N2CCCCCC2)cc1)Nc1ccnn1Cc1cccs1
 : 1.5 | .
NC(N)=NCCN1CCOCC1
 : -0.4 | 2.83

An excerpt from above in order of molar mass, high to low:
Every second line gives: BasE inh | LANA-nucl inh
O=C(NCC1CCN(Cc2ccc(Cl)cc2)CC1)c1[nH]nc2c1COc1ccccc1-2
 : -4.1 | -0.054
CNC(=S)N(Cc1ccco1)Cc1cc2cc(C)ccc2n2nnnc12
 : 0.6 | -0.565
O=C(CCc1ccco1)Nc1cccc(-c2nc3ccccc3[nH]2)c1
 : -2.2 | .
Oc1oc(C=Nc2ccccc2)c2ccccc12
 : . | -0.235
NC(N)=NCCN1CCOCC1
 : -0.4 | 2.83

New compounds follow.
Every second line gives: BasE inh | LANA-nucl inh
N#CC(=C1CCCC1)c1nc(-c2cc3ccccc3oc2=O)cs1
 : -1.5 | .
COC(=O)COc1ccc2c(C)c(C)c(=O)oc2c1
 : 2.1 | .
Cc1cc(N(C)S(=O)(=O)c2ccc(N)cc2)nc(C)n1
 : -3.4 | 1.89
O=C(CN1C(=O)c2ccccc2S1(=O)=O)N1N=C2/C(=C/c3ccco3)CCCC2C1c1ccco1 (configuration not stated)
 : 1.1 | .
O=CN1CCN(C(=O)COc2ccc(Br)cc2)CC1
 : -0.9 | 0.722
CNc1nc2ccccn2c(=O)c1/C=C1\SC(=S)N(C)C1=O
 : -8.3 | .
O=C(Cc1ccsc1)Oc1ccc2c(c1)OCO2
 : 1.6 | .
CCC(=O)N(Cc1ccc(S(N)(=O)=O)cc1)C1CC(=O)N(c2ccccc2)C1=O (configuration not stated)
 : 0.9 | -0.81
CCOc1cc(S(=O)(=O)NC2CC2)c(OCC)cc1-n1cnnn1
 : -0.7 | -0.742
CCc1ccccc1NC(=O)c1cccc(NC(=O)/C=C/c2ccco2)c1
 : 0.9 | -0.385
CNC(=S)Nc1ccc(N2CCOCC2)cc1
 : 0.2 | .
Cc1cc(C)c(C#N)c(N2CCCC2)n1
 : -2.5 | 2.61
CCOC(=O)c1cc(-c2ccccc2)nc2nc(N3CCCC3)sc12
 : 1.7 | .
COc1cc(C2=NOC(C(=O)N3CCCc4ccccc43)C2)cc(OC)c1OC (configuration not stated)
 : -5.2 | -1.38
CCCCc1ccc(NC(=O)/C=C2\SC(=O)NC2=O)cc1
 : 2.6 | -0.289
CC(Sc1nc2ccccc2c(=O)n1Cc1ccco1)C(=O)Nc1ccc2c(c1)OCCO2 (configuration not stated)
 : 0.8 | .
CS/C(NC1CCCCC1)=C(/C#N)S(=O)(=O)c1ccc(Cl)cc1
 : -2.3 | .
O=C(c1cnn(C(=O)CN2C(=O)COc3ccccc32)c1)c1ccccc1O
 : -0.9 | .
CCN1CCN(CCC(=O)Nc2ccc(F)cc2)CC1
 : 5.2 | 0.117
Cc1cccc(CC(=O)NC2CCCC2)c1
 : 5.2 | -0.455

Next part:
Every second line gives: BasE inh | LANA-nucl inh
CCN(CC)C(=O)CSc1nc2cc3c(cc2c(=O)n1CCCC(=O)NCCc1ccc(OC)c(OC)c1)OCO3
 : -0.6 | -0.174
NC(=S)NCc1ccccc1
 : -0.3 | .
CCOC(=O)N1CCN(C(=O)c2cn(CC)c3ccc(S(=O)(=O)N4CCCCC4)cc3c2=O)CC1
 : 1.3 | 0.456
CSc1cccc(N=C2C(=O)Nc3ccccc32)c1
 : 1.8 | -0.119
COC(=O)c1c(COC(=O)/C=C/c2ccc(Br)o2)nc2ccccc2c1C
 : 0.8 | .
COc1ccc(CNC(=O)NC2CCCCC2)cc1
 : -2.1 | -0.51
Cc1nc2scc(-c3cccs3)c2c(=O)o1
 : -0.4 | -0.244
Cc1c(C)[n+](=O)c2c(n1[O-])CCCCC2
 : 4.3 | -0.487
CCCS(=O)(=O)Nc1ccc(N2CCN(c3ccc(C(F)(F)F)cn3)CC2)nc1
 : 0.4 | -1.33
Cc1cccc2c(=O)cc(C)n(CC(=O)N3CCCCC3)c12
 : -1.9 | 0.509
Cc1sc2c(c1C)c(=O)nc1n2C(CSc2nc3sc4c(c3c(=O)[nH]2)CCCC4)CS1 (configuration not stated)
 : 3.3 | -0.355
COc1cc(/C=N/NC(=O)c2cc(C3CC3)[nH]n2)ccc1O
 : 49.2* | 0.328
Cc1ccc(C(C)(C)CCN2CCCN(C)CC2)o1
 : -1.5 | 0.474
O=C(/C=C/c1nnc2c3ccccc3cnn12)OCc1nnc(-c2cc3c(s2)CCCC3)o1
 : 1.0 | .
C=CCNc1nc(C(=O)OCC(=O)c2ccc[nH]2)cs1
 : -1.7 | .
CCCc1nnc(CSc2nc3ccccc3o2)o1
 : -0.9 | 0.257
CCC(C)NC(N)=O (configuration not stated)
 : 0.8 | .
